MT1-MMP act inh: blocks activation of human MT1-MMP; hit rate 0.061% among 360,000; AID 651647; HT1080 RFP-PRO-GFP cells, GFP/RFP ratio fluorescence, overnight; percent of plate control window, DMSO zero; P50281; GFP/RFP ratio change, % at 20 µM;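 active = GFP/RFP ratio change of at least 30% with cell ATP level not reduced by more than half and red fluorescence within 50% of control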; also: strong numbers were not always called active
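Test system: HT1080 cells expressing an RFP-PRO-GFP fluorescent reporter construct / Compound dosing: single-point 20 µM compound, 1% DMSO / Schedule: cells overnight before dosing, compound overnight, 37 °C, 5% CO2 / Evaluation: GFP/RFP fluorescence ratio / Control set: DMSO and RFP-L50D-GFP cell wells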
Yeast UUG start: modulators of start codon recognition fidelity in yeast; S. cerevisiae UUG-firefly luciferase reporter, luminescence/redox ratio; activity score, % at 18.7 µM; hit rate 0.13% among 350,000; AID 602363;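 active = replicate mean at a twofold rise or more, about +100% in these data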;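 also: firefly luciferase made from a UUG start codon reports start codon fidelity; reporter light over untreated wells divided by growth signal over untreated wells; some hits fall short of that in this replicate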
Rce1 inhib: yeast Ras-converting enzyme inhibition. Q03530. yeast membranes, quenched prenylated peptide cleavage fluorescence. calls only. hit rate 0.27% among 290,000;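 active = fall in fluorescence gain of 50% or more versus controls, with final raw signal at or below 3038400; inconclusive = same 50% fall but final raw signal above 3038400; inactive = fall in fluorescence gain under 50%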;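 also: plate controls were neutral control wells for no effect and wells lacking membranes for full effect; tested at 10 µM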
Target sequence (Q03530 whole entry, looked up): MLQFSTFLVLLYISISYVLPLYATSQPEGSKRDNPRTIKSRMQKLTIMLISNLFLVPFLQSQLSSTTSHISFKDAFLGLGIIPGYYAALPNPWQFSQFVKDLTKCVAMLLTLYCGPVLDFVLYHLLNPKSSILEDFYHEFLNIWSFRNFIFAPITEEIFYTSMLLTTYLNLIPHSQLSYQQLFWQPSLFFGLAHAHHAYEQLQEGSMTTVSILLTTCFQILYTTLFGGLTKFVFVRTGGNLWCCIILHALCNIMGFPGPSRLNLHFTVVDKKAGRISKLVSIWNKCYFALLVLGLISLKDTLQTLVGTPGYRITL
CSC inhib: blocks cancer stem cells; cancer stem cell-like cells viability, luminescence; inhibition, % at 7.5 µM; hit rate 1.1% among 300,000; AID 2717;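 active = mean at 75% or more and at least half the replicates too; inconclusive = mean and replicates disagree; tested in HMLE shEcad cells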;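 also: 0% = median of negative and 100% = median of positive control wells; the first replicate is given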
PABP polyA inh: blocks human PABP binding to poly(A) RNA | P11940 | fluorescence polarization | inhibition, % at 35 µM | hit rate 1% among 290,000 | AID 2014;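 active = 50% or more with normal probe brightness, or confirmed in later tests; inconclusive = above 50% with abnormal brightness, or retests that disagree; inactive = below 50% or failed in later tests; about a fifth of its hits are not listed in these tables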;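 also: calls also rest on retests at 20 µM and on dose response follow-up; controls were probe without protein and protein plus probe with vehicle; some compounds called inactive have numbers as strong as hits; many hits fall short of the cut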
Env fusion inh: inhibitors of HIV Env-mediated cell fusion; HeLa-JRFL Env/CEM21 cell fusion, luciferase; inhibition, % at 12.3 µM; hit rate 1.1% among 360,000; AID 651610;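 active = mean replicate inhibition score of at least 50 and every replicate individually at or above 50; inconclusive = only one of the two criteria met; inactive = mean below 50 and not all replicates reaching 50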;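 also: 0% = plate neutral controls and 100% = maraviroc near 300 nM; one replicate is shown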
eIF4H FP inh: inhibitors of RNA binding by human eIF4H | Q15056 | inhibition, % at 35 µM | eIF4H fluorescence polarization binding assay | hit rate 0.94% among 290,000;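 active = 50% or more with normal probe brightness, or confirmed in later tests; inconclusive = above 50% with abnormal brightness, or retests that disagree; inactive = below 50% or failed in later tests; about a fifth of its hits are not listed in these tables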;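 also: calls also rest on retests at 20 µM and on dose response follow-up; 0% = protein and probe with vehicle and 100% = probe without protein; strong numbers were not always called active; many hits fall short of the cut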
eIF4H FP inh retest: further read-out of eIF4H FP inh, marked with its call; inhibition, %; compound at 20 µM; confirmation average;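 mean of two retest wells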
PABP polyA inh retest: further read-out of PABP polyA inh, marked with its call; inhibition, %; compound at 20 µM; confirmation repeats;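 mean of two retest wells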
MT1-MMP act inh RFP: recorded beside MT1-MMP act inh, whose call it bears; RFP signal change, %; measured here: RFP expression control read;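 0 = vehicle wells; hits needed this value within 50% of zero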
The depositor's hits bear a star; i = inactive; u = inconclusive; x = not tested or not shown; + = active, no number. An excerpt; the hit share may differ from the screen's.

SMILES	MT1-MMP act inh	MT1-MMP act inh RFP	Yeast UUG start	Rce1 inhib	CSC inhib	PABP polyA inh	Env fusion inh	eIF4H FP inh	others
O=C(Nc1cccc([N+](=O)[O-])c1)c1cccc(C(=O)Nc2cccc([N+](=O)[O-])c2)c1	-18	-3	-14	i	-11	-25	7	9
O=C(CSc1ncccn1)Nc1ccc(Cl)c(S(=O)(=O)N2CCOCC2)c1	2	4	-31	x	-18	x	4	x
CC1(C)CC(=O)c2cc(C(=O)N3CCCC(C)(C)C3)c(=O)n(-c3ccccc3)c2C1	10	7	-19	i	-14	1	x	-2
O=C(Cc1cccs1)Nc1ccc(NC(=O)c2ccco2)cc1	3	3	-16	i	-21	5	13	-3
O=C(Nc1nnc(C2CC2)s1)c1ccccn1	15	9	-46	i	17	3	x	16
CC1=C(C(=O)NC2CCCc3c2cnn3-c2ccc(F)cc2F)OCCO1 (stereo not given)	7	-27	-15	i	-3	x	-1	x
N#Cc1sc2nc(-c3ccccc3)cc(-c3ccco3)c2c1N	-1	-1	-24	i	-1	-4	-71	89	eIF4H FP inh retest=5;PABP polyA inh retest=3
COc1cc(OC)c(S(=O)(=O)Nc2ccccc2NC(=O)CN2CCOCC2)cc1NC(C)=O	-1	0	x	i	x	3	-2	5
Cc1cccc(N2CC(C(=O)Nc3ccc(S(=O)(=O)N4CCOCC4)cc3)CC2=O)c1 (stereo not given)	0	1	-1	x	-8	-14	-8	-6
O=C(CNC(=O)c1ccc(F)cc1)N/N=C/c1cc(Br)ccc1OCc1ccccc1	-1	-8	-16	i	-6	0	5	-3
CCCCC(=O)N/N=C/c1ccc(-c2ccc([N+](=O)[O-])cc2)o1	-1	0	x	i	3	-4	-5	0
COc1ccc(-c2nn(-c3ccccc3)cc2/C=C/C(=O)N2CCN(c3ccccn3)CC2)cc1	2	-7	x	i	-6	7	40	0
CCC1C(C#N)=C(SCC(N)=O)NC2=C1C(=O)CC(C)(C)C2 (stereo not given)	-1	0	-18	i	9	-4	-11	-6
O=C(NC1CC2CCCC(C1)N2C(=O)Nc1ccccc1F)C1CC1 (stereo not given)	-3	3	4	i	3	4	-8	2
Cc1cccc(OCC(O)CN2CCN(S(=O)(=O)c3ccc(C)cc3C)CC2)c1 (stereo not given)	4	-5	3	i	x	16	12	24
CCCNC(=O)Cn1c(=O)/c(=C/c2ccc(-c3cccc([N+](=O)[O-])c3)o2)s/c1=C\C(=O)C(C)(C)C	-52	1	-3	x	x	x	29	x
Fc1ccc(-c2ccc(NCCN3CCOCC3)nn2)cc1	1	1	-3	i	-5	10	-9	6
COc1ccc(C(=O)Nc2ccc(-n3nncc3C(C)(C)C)cc2)cc1	-2	-4	x	i	-9	8	18	5
O=S(=O)(NCC1COc2ccccc2O1)c1ccc2ccccc2c1 (stereo not given)	2	4	-7	i	-5	0	1	-14
CC1CC(C)CN(S(=O)(=O)c2cc(C(=O)O)c(Cl)s2)C1 (stereo not given)	-34	4	-7	i	-13	6	-5	6
COc1ccc(OC)c(Cc2nnc(CCC(=O)N3CCN(C4CCCC4)CC3)o2)c1	-9	0	-15	+	10	2	-26	-10
CS(=O)(=O)Nc1ccc(C2=NN(C(=O)c3ccco3)C(c3ccccc3F)C2)cc1 (stereo not given)	0	-4	x	i	-7	-13	0	-4
Cc1cccc(NC(=O)NCC2CCN(c3ccc(S(=O)(=O)N4CCOCC4)cc3)CC2)c1	-3	-5	15	i	15	-5	-9	0
COC(=O)c1c(NC(=O)COC(=O)[C@@H](NS(=O)(=O)c2cccc(Cl)c2)C(C)C)sc2c1CCC2	-4	-12	-19	i	x	0	x	-10
O=C(COc1ccc(Cl)cc1)Nc1cc(NC(=O)COc2ccc(Cl)cc2)cc(C(=O)O)c1	2	1	-5	i	0	11	3	6
COc1cc(/C=C2\SC(=Nc3ccc(O)cc3)NC2=O)cc(OC)c1O	-55	28	x	i	49	-2	-44	-6
CN(C)C(=O)c1cc(C(=O)c2ccccc2Br)c[nH]1	4	-6	-16	i	-11	5	-35	-2
CN(C)S(=O)(=O)c1cccc(C(=O)NCCNC(=O)c2cccc(S(=O)(=O)N(C)C)c2)c1	2	3	-6	i	3	0	2	1
COC(=O)Oc1ccc(/C=N/NS(=O)(=O)c2ccccc2)cc1OC	1	-4	-11	i	-14	0	-31	-6
CCCSc1nnc(NC(=O)CCc2ccccc2)s1	1	-2	-25	i	13	14	-11	-10
CCOC(=O)C1(Cc2cccc(Cl)c2)CCCN(C(=O)CCNC(C)=O)C1 (stereo not given)	-1	0	-14	i	-17	-6	-15	-9
CCCn1c(=O)[nH]c(=O)c2c1nc(-c1ccc(OC(F)F)cc1)n2CCN1CCOCC1	3	1	5	i	12	16	x	3
O=C(NCc1ccccn1)c1cccc(NS(=O)(=O)c2cccc(Cl)c2)c1	-2	-3	x	i	-10	-7	0	2
N/C(=N\OC(=O)CN1C(=O)c2ccccc2C1=O)c1ccc(Cl)cc1	1	5	x	i	9	u	-2	u
Cc1cc(C)cc(Oc2nc3c(C)cccn3c(=O)c2/C=C(\C#N)C(=O)NC2CCS(=O)(=O)C2)c1 (stereo not given)	-6	-9	x	x	38	6	x	9
COc1cccc(CN2CCC2(C)C(=O)Nc2ccc3c(c2)OCO3)c1F (stereo not given)	-1	-3	-16	x	x	x	11	x
CCOc1ccccc1C(=O)Nc1nncs1	4	3	17	i	7	3	x	-7
O=C(CSc1nc2ccccc2s1)Nn1cnnc1	2	2	-20	i	-2	4	x	-9
Cc1[nH]n(-c2ccccc2)c(=O)c1C(c1cccc([N+](=O)[O-])c1O)c1c(C)[nH]n(-c2ccccc2)c1=O	8	-1	x	i	-11	-9	x	-4
CN1CCN(C(=O)c2cc(C(C)(C)C)cc(C(C)(C)C)c2)CC1	-7	-1	x	i	-14	-4	-6	3
COc1ccc(N2CCN(C(=O)c3cc(=O)c4cc(C)ccc4o3)CC2)cc1	-1	-1	-1	i	-22	-10	11	7
CCOC(=O)C1CCN(c2c(C(=O)c3ccccc3)cnc3ccc(CC)cc23)CC1	-1	-1	-1	i	-12	-3	-2	-12
CC1=C(C(N)=O)C(c2ccccn2)n2nc(SCc3ccccc3)nc2N1 (stereo not given)	0	0	-23	i	-18	42	-7	2
Cc1ccc(C(C)C)c(OCc2nnc(SCC(=O)Nc3ncc(C)s3)n2C)c1	-1	-3	4	i	0	3	14	10
CC1Cc2ccccc2N1C(=O)CSc1nnc(Cn2nnc3ccccc32)n1C (stereo not given)	-1	-4	-16	i	-12	-5	x	-7
CCC(C)Nc1c([N+](=O)[O-])cc(C)cc1[N+](=O)[O-] (stereo not given)	-3	4	x	i	-4	-3	10	-5
CC(=O)NC(CCS(C)(=O)=O)C(=O)Nc1ccc(F)cc1Cl (stereo not given)	0	4	x	i	-12	-8	x	-2
O=c1c2c3c(sc2nc2n1CCCC2)CCCC3	0	2	-17	i	-11	29	x	-10

Filtered by structure, the entries above with an NH in an aromatic ring
SMILES	MT1-MMP act inh	MT1-MMP act inh RFP	Yeast UUG start	Rce1 inhib	CSC inhib	PABP polyA inh	Env fusion inh	eIF4H FP inh	others
CN(C)C(=O)c1cc(C(=O)c2ccccc2Br)c[nH]1	4	-6	-16	i	-11	5	-35	-2
CCCn1c(=O)[nH]c(=O)c2c1nc(-c1ccc(OC(F)F)cc1)n2CCN1CCOCC1	3	1	5	i	12	16	x	3
Cc1[nH]n(-c2ccccc2)c(=O)c1C(c1cccc([N+](=O)[O-])c1O)c1c(C)[nH]n(-c2ccccc2)c1=O	8	-1	x	i	-11	-9	x	-4

Carrying on.
SMILES	MT1-MMP act inh	MT1-MMP act inh RFP	Yeast UUG start	Rce1 inhib	CSC inhib	PABP polyA inh	Env fusion inh	eIF4H FP inh	others
CCc1ccc(Oc2coc3cc(OC(=O)c4cc5ccccc5oc4=O)ccc3c2=O)cc1	7	-10	-3	i	-10	-1	x	-1
CN(C)c1ccc(/C=N/NC(=O)Cn2nnc3ccccc32)cc1	0	5	x	i	-19	-6	7	6
C=CCc1ccc(O)c(-c2ccc(O)c(CC=C)c2)c1	2	-6	2	i	0	-1	x	-1
COc1ccc(C(CNC(=O)c2ccc(S(=O)(=O)Nc3ccc(F)cc3)cc2)N(C)C)cc1 (stereo not given)	-3	-8	-3	i	-7	9	-11	-12
Cc1ccc2nc(NC(=O)c3ccc(Cl)s3)sc2c1	-4	-2	8	i	-10	2	-130	-9
COc1cc(/C=C2/C(=N)N3OC(C)=CC3=NC2=O)ccc1OCCOc1ccc(C)cc1	-3	1	-47	i	-1	4	-132	17
c1ccc(C2=Nc3cccc4cccc(c34)N2)cc1	6	5	x	i	5	11	1	0
O=C(O)CCCCCNCc1ccncc1	-2	-1	-17	i	-11	-6	x	-5
COc1ccc(S(=O)(=O)NCC(c2ccc(C)cc2)N2CCN(C)CC2)cc1OC (stereo not given)	-7	2	6	i	16	x	-25	x
CC(=O)N1CCc2cc(S(=O)(=O)CCC(=O)NCc3ccco3)ccc21	-1	3	x	i	11	-6	8	0
COc1ccccc1Cc1nc2ccccc2n1S(=O)(=O)c1ccc(Cl)cc1	-5	-1	-3	i	-11	-6	0	1
COc1cccc(CN(C)C(=O)Cc2c[nH]c3ccccc23)c1OC	-2	0	-10	i	-16	4	25	-4
CC(C)c1ccc(C(=O)Nc2ccc(N3CCOCC3)cc2)cc1	5	-2	-19	i	41	5	x	-18
CCCN1CCc2c(sc(NC(=O)c3ccc(S(=O)(=O)N4CCCC4)cc3)c2C(N)=O)C1	-39	3	-16	i	-2	3	16	14
Cn1cc(S(=O)(=O)N2CCOCC2)cc1C(=O)NCCc1ccccc1	3	3	-10	i	1	15	x	-5
O=C(NNc1ccc([N+](=O)[O-])cc1)Nc1ccccc1	0	4	-18	i	11	16	-22	15
CCc1ccc(CNC(=O)CCc2nnc(Cc3cccc(C(F)(F)F)c3)o2)nc1	3	10	x	i	-14	-4	3	-2
Cc1cc(-n2c(C)cc(C(=O)COc3cc(F)ccc3[N+](=O)[O-])c2C)no1	-21	0	-29	x	x	x	21	x
COc1ccc(CN(C)C(=O)c2ccc(NC(=O)CC3SC(N4CCCC4)=NC3=O)cc2)c(OC)c1 (stereo not given)	1	3	7	i	-4	x	-3	x
CC(=O)NC(CC(=O)Nc1ccc(S(=O)(=O)N2CCCCC2)cc1)c1ccccc1 (stereo not given)	4	6	-2	i	6	2	-24	6
Cc1cc(SCC(=O)NCCN2C(=O)CSC2=O)nc2c(C)cccc12	-2	5	x	i	-6	4	x	5
O=C(COc1cccc2cccnc12)N/N=C/c1ccc(O)cc1	0	3	-42	i	3	-4	3	-5
CCn1c(SCC(=O)NC(C)(C)C)nnc1-c1ccoc1C	4	3	-5	i	-6	-12	-144	3
COc1ccc(-c2cc(NC=O)c3ncc(-c4ccc(OC)c(OC)c4)n3c2)cc1OC	1	-1	-14	x	x	x	12	x
CNC(=S)N1N=C(c2ccc(C)cc2)CC1c1ccc(Br)cc1 (stereo not given)	-7	-7	-27	i	28	3	-9	-12
CCCN(CC(=O)Nc1ccccc1C)C(=O)C1CCN(S(=O)(=O)c2cccc(C(F)(F)F)c2)CC1	0	3	5	i	7	x	21	x
CCOCCN(C=O)c1cccc(OC)c1	14	12	-18	i	-3	-7	-18	4
Cc1sc2nc(CN(C(=O)NC3CCCCC3)C3CCCCC3)[nH]c(=O)c2c1C	-22	-17	-21	i	-17	-12	x	-1
